# High-throughput results as filed in PubChem BioAssay.
# Hedgehog inh: blocks Sonic Hedgehog signaling. AID 2313. inhibition, % (no concentration beside the values). Shh-LIGHT2 Gli-luciferase reporter, 30 h. 22,000 tested, 2.1% active;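 active = replicate mean of 65% or more; inconclusive = mean lower but half the replicates past it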;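 also: pathway switched on by Shh-conditioned medium diluted 1 in 25 in low serum; 100 nL library stock added to about 40 µL; 0% = median of neutral wells and 100% = positive control level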
# YB-1 expr inh: YB-1 expression inhibition; U2OS, qRT-PCR YB-1 vs CDIP delta delta Cp, 16 h; stronger effect = higher value; zero = DMSO, each unit about twofold; delta delta Cp (YB-1 minus CDIP) (test concentration not listed); 30,000 tested, 0.37% active; AID 434959;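 active = delta delta Cp rounded down to an integer at or above 3, about 3 SD of DMSO wells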;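 also: higher means less YB-1 transcript or more CDIP transcript relative to DMSO; stock transfer was 100 nL into about 100 µL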
# PD-1 reverse act: reversal of PD-1 mediated T-cell inhibition. primary human CD4 T cells, PD-L1 beads, CellTiter-Glo 96 h. activation, % (no concentration beside the values). 29,000 tested, under 10 active. AID 2316;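 active = replicate mean of 50% or more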;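 also: 0% = median vehicle wells and 100% = positive control; 100 nL library stock added to about 50 µL; numbers are from one replicate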
# MITF inhib: MITF inhibition; inhibition, % (concentration not given with the values); AID 2240; 37,000 tested, 0.28% active; TRPM1 promoter luciferase, luminescence, 24 h;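 active = most replicates at 85% or more, or half of them and the mean; inconclusive = half reach 85% but not the mean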;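 also: human melanocyte line stably carrying TRPM1 promoter luciferase reporter; 0% = vehicle wells and 100% = a positive control; the first replicate is given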
# The depositor's hits bear a star; ? = inconclusive; nt = no result given; & = joins results of further samples; ! = a repeat was not active. Not all compounds are listed; count on the stated rates, not on these rows.
SMILES,Hedgehog inh,YB-1 expr inh,PD-1 reverse act,MITF inhib
COc1ccn(C)c(=O)c1C#N,-43,-0.54,nt,-5
C#C[C@]1(O)CC[C@H]2[C@@H]3CCC4=CC(=O)CC[C@]4(C)[C@H]3CC[C@@]21C,7,-0.12,nt,5
CN1C2CCCC1CC(=O)C2,-34,-0.083,3.1,14
COC1=CC(=O)OC(/C=C/c2ccccc2)C1 (stereo not given),0,-0.26,-2.6,-46
C[C@H]1C(=O)O[C@@H]2CCN3CC=C(COC(=O)[C@](C)(O)[C@]1(C)O)[C@H]23,-37,0.14,-1.5,7
CC(C)c1ccc2c(c1O)CC[C@H]1C3=C(CC[C@]21C)C(=O)OC3,36,-0.021,nt,35
CC(C)N(C(=O)CCl)c1ccccc1,71*,-0.29,nt,14
Cc1cccc(C)c1NC1=NCCCS1,-66,-0.087,-0.8,-9
CNC(=O)O/N=C(/C)SC,-28,0.079,nt,-5
O=c1oc2ccccc2c(O)c1Cc1c(O)c2ccccc2oc1=O,-46,-0.11,nt,17
CC(=O)[C@H]1CC[C@H]2[C@@H]3CC[C@H]4C[C@H](O)CC[C@]4(C)[C@H]3CC[C@]12C,-33,-0.53,nt,39
COC(/C=C/CC/C=C/C(=O)O)C(O)C(C)C(O)/C(C)=C/C(C)C(=O)CCCC1CC(=O)NC(=O)C1 (stereo not given),-23,1.4,0.1,19
Cc1cc(OC(=O)c2cccs2)c2c3c(c(=O)oc2c1)CCC3,-9,0.41,-0.1,-8
CC(=O)c1cccc(NC(=O)CSC2c3ccccc3-c3ccccc32)c1,nt,nt,-0.8,5
C[C@H]1CCCC(=O)CCC/C=C/c2cc(O)cc(O)c2C(=O)O1,-10,0.31,nt,-4
CCc1cccc(CC)c1N(COC)C(=O)CCl,11,-0.28,nt,26
O=[N+]([O-])c1ccc2nc(N3CCNCC3)ccc2c1,17,-0.23,3.8,-4
Cc1cccc(N2C(=O)NC(=O)C(CCc3ccncc3)(CCc3ccncc3)C2=O)c1,nt,nt,1.5,7
C=C[C@@]12CN(C)[C@H]3[C@H]1[C@@]1(C(=O)Nc4ccccc41)C1CC2[C@@H]3CO1,-91,-0.68,nt,-20
C=C[C@H]1CN2CC[C@H]1C[C@@H]2[C@@H](O)c1ccnc2ccccc12,42,-0.24,nt,-6
CC1=NCCc2c1[nH]c1cc(O)ccc21,80*!,0.043&0.023,-0.3,1&41
CC(C)c1cc2c(cc1O)[C@@]1(C)CCCC(C)(C)[C@@H]1CC2,-5,-0.26,-2.7,-12
O=C(Nc1ccc2c(C(F)(F)F)cc(=O)oc2c1)c1nc2ncccn2n1,nt,nt,2.0,-20
CC1(C)C(C(=O)Nc2ccc(S(=O)(=O)c3ccc(NC(=O)C4C(C)(C)C4(C)C)cc3)cc2)C1(C)C,-20,-0.00045,2.1,-9
Cc1cccnc1-n1c(CN2C(=O)c3ccccc3C2=O)nc2ccccc2c1=O,nt,nt,2.0,0
CC(C)=CCc1c(O)cc2c(c1O)C(=O)CC(c1ccc(O)cc1)O2 (stereo not given),30,-0.069,-1.9,17
COc1cc2c3c(c1OC)-c1c(ccc(O)c1O)CC3N(C)CC2 (stereo not given),-10,-0.63,-0.5,0
CC[C@@]1(O)C(=O)OCc2c1cc1n(c2=O)Cc2cc3c(O)cccc3nc2-1,68*,1.4,nt,66
CC(C)(C)c1cc(C=C(C#N)C#N)cc(Br)c1O,88*,0.67,0.4,78
COc1cc(C2=NC(O)C(=O)Nc3ccc(Cl)cc32)ccc1O (stereo not given),-15,-0.27,3.6,3

# Copied from the list.
# YB-1 expr inh with COC(/C=C/CC/C=C/C(=O)O)C(O)C(C)C(O)/C(C)=C/C(C)C(=O)CCCC1CC(=O)NC(=O)C1 (stereo not given) reads 1.4
# Hedgehog inh with CC(C)N(C(=O)CCl)c1ccccc1 reads 71*
# MITF inhib with CNC(=O)O/N=C(/C)SC reads -5
# YB-1 expr inh with CC(C)c1cc2c(cc1O)[C@@]1(C)CCCC(C)(C)[C@@H]1CC2 reads -0.26
# PD-1 reverse act with Cc1cccc(C)c1NC1=NCCCS1 reads -0.8

# The results go on.
SMILES,Hedgehog inh,YB-1 expr inh,PD-1 reverse act,MITF inhib
C/C=C1/C[C@@H](C)[C@](O)(CO)C(=O)OCC2=CCN3CC[C@@H](OC1=O)[C@@H]23,20,0.083,1.5,7
O=[N+]([O-])c1ccc(O)c([N+](=O)[O-])c1,50,0.27,nt,105*
O=C(O)CP(=S)(c1ccccc1)c1ccccc1,9,-0.2,-0.9,16
CSc1nc(NC(C)C)nc(NC(C)C)n1,-38,-0.27,nt,-2
CCC1=CC2CN3CCc4c([nH]c5ccccc45)[C@@](C(=O)OC)(C2)[C@@H]13,9,1.1,0.9,16
CCC(C)[C@H]1C(=O)O[C@H](C(C)C)C(=O)N(C)[C@@H](C(C)CC)C(=O)O[C@H](C(C)C)C(=O)N(C)[C@@H](C(C)CC)C(=O)O[C@H](C(C)C)C(=O)N1C (stereo not given in full),104*,-0.1,-14,96*
CC(=O)OC1CCC2(C)C(=CCC3C4CCC(=O)C4(C)CCC32)C1 (stereo not given),-9,0.23,-0.4,-2
CC(C)C[C@H]1C(=O)N2CCC[C@H]2[C@]2(O)O[C@](NC(=O)[C@@H]3C=C4c5cccc6[nH]cc(c56)C[C@H]4N(C)C3)(C(C)C)C(=O)N12,-23,0.36,nt,-1
CCc1nc2ccccc2c(=O)n1-c1ccc(OC)cc1,-3,-0.25,2.0,3
C[C@H]1O[C@@H](O[C@H]2CC[C@]3(CO)C4CC[C@]5(C)[C@@H](C6=CC(=O)OC6)CC[C@]5(O)C4CC[C@H]3C2)[C@H](O)[C@H](O)[C@@H]1O (stereo not given in full),-21,0.42,nt,nt
C[C@@H]1O[C@@H](O[C@@H]2C=C3CC[C@@H]4C(C[C@@H](O)[C@]5(C)[C@@H](c6ccc(=O)oc6)CC[C@]45O)[C@@]3(C)CC2)[C@H](O)[C@H](O)[C@H]1O[C@@H]1O[C@H](CO)[C@@H](O)[C@H](O)[C@H]1O (stereo not given in full),-38,-0.5,nt,nt
COC(=O)[C@@]12C(=O)C(C)C(=O)[C@]1(C)C(C)=C[C@H]1[C@]3(C=O)CC[C@H](OC(C)=O)C(C)(C)[C@H]3CC[C@@]12C (stereo not given in full),25,0.37,nt,nt
c1ccc2nc(N3CCNCC3)ccc2c1,?,-0.18&0.085&0.4,nt,-5&17&-6
Cn1c[n+](C)cc1C(O)c1ccccc1 (stereo not given),-13,0.19,0.2,-7
CC(=O)O[C@@H](c1nc2ccccc2c(=O)n1[C@@H]1C[C@@]2(OC1=O)c1ccccc1N1C(=O)[C@H](C)N(O)[C@@H]12)C(C)C,14,-0.37,-0.7,15
CN1C(=O)c2ccccc2NC(=O)[C@]12O[C@@H]2c1ccccc1,-21,0.28,-0.2,-6
COc1cc2c(c(OC)c1OC)-c1ccc(O)c(=O)cc1[C@@H](N)CC2,10,-0.34,-3.7,-1
CC[C@H]1CN2CC[C@H]1C[C@@H]2[C@@H](O)c1ccnc2ccc(OC)cc12,17,-0.17,0.5,-4
COc1ccc(CN2CCNCC2)c(OC)c1OC,-72,0.056,6.6,-4
CC(C)(C)c1ccc(O)c(CN2CCN(c3ccccc3)CC2)c1,7,-0.25,-1.5,11
COCc1cc(OC(=O)N(C)C)nc2c1c(-c1cccs1)nn2C,19,0.036,-3.4,0
O=C1NC(=O)C(=C/C=C/c2ccccc2)C(=O)N1,?,0.17,-8.6,87*
CC12CN3CN(C1)CC(c1ccccc1)(C3)C2=O,10,0.084,0.4,12
O=C(/C=C/c1ccccc1)OCC1OC(OC2OC=CC3C(O)C4OC4(CO)C23)C(O)C(O)C1O (stereo not given),-15,-0.59,1.0,-9
COC(C/C=C/C=C/CC/C=C\CC(C)/C=C\C(=C/C(=O)O)CC(=O)O)/C(C)=C\C=C(/C)C(=O)O (stereo not given),-53,-0.23,4.0,8
COC1=CC23CCN(C)[C@H](Cc4cc(OC)c(OC)cc42)C3=CC1=O,-6,-0.39,4.0,3
CC[C@]12C=CCN3CC[C@@]4(c5ccc(OC)cc5N(C)[C@H]4[C@@](O)(C(=O)OC)[C@@H]1OC(C)=O)[C@@H]32,6,-0.11,-0.9,-5
CCN(CC)C(=O)N[C@@H]1C=C2c3cccc4[nH]cc(c34)C[C@H]2N(C)C1,-19,-0.11,nt,12
CC(C)(C)NCC(O)c1ccccc1Cl (stereo not given),-6,0.018,nt,-2
CCCN1CCC[C@@H]2Cc3[nH]ncc3C[C@H]21,-20&-23,0.51&-0.16,nt,-21&-8

# Continued.
SMILES,Hedgehog inh,YB-1 expr inh,PD-1 reverse act,MITF inhib
C/C=C1/C[N+]2([O-])C3CC1C(CO)C2Cc1c3[nH]c2ccc(OC)cc12 (stereo not given),-10,-0.13,1.9,24
COc1ccccc1OCCCn1cc(C(=O)C(C)(C)C)c2ccccc21,nt,nt,-1.9,13
COC(=O)c1c(C)n(CCCOC(C)C)c2c1cc(O)c1ccccc12,nt,nt,-2.5,13
OC[C@H]1O[C@@H](Oc2ccc(/C=C/c3cc(O)cc(O)c3)cc2O)[C@H](O)[C@@H](O)[C@@H]1O,-18,0.42,nt,nt
CCC(C)C1NC(=O)C2CCCN2C(=O)C(CC(C)C)OC(=O)CCNC(=O)C(C)N(C)C(=O)C(C(C)C)N(C)C1=O (stereo not given),58,-0.56,0.1,-47
CN1C[C@H](CO)C=C2c3cccc4[nH]cc(c34)C[C@H]21,-14,0.17,nt,3
O=C1NCN(c2ccccc2)C12CCN(CCCOc1ccc(F)cc1)CC2,?,-0.085,nt,57
CC[C@@H]1/C=C\C=C\C[C@H](C)C(O)[C@](C)(O)C(=O)[C@H](C)C(O)[C@H](C)C(=O)[C@H](C)[C@@H](O)[C@H](C)/C=C/C(=O)O[C@H]2[C@@H](C)[C@@H](CC1)O[C@@]1(CC[C@@H](C)[C@@H](C[C@H](C)O)O1)[C@@H]2C (stereo not given in full),108*,-0.57,-15,75
CCCc1c(C)nc(SCC(=O)C(C)(C)C)nc1OC(=O)N(C)C,nt,-0.07,0.8,1
CC(C)(O)CCC(=O)[C@](C)(O)[C@H]1[C@H](O)C[C@@]2(C)[C@@H]3CC=C4C(C=C(O[C@@H]5O[C@H](CO)[C@@H](O)[C@H](O)[C@H]5O)C(=O)C4(C)C)[C@]3(C)C(=O)C[C@]12C (stereo not given in full),-5,-0.18,1.1,8
CCCOC(=O)c1cc2c(cn1)[nH]c1ccccc12,-139,-0.46,nt,-26
CC(C)C12CN3CCN(CC(C3)/C1=N/N)C2,-24,-0.16,7.3,-10
CN1CCc2c(c(N3CCCCC3)nc3n[nH]c(N)c23)C1,-12,-0.11,0.6,-4
COc1ccc(CCNCc2cc(Cl)cc(Cl)c2OC)cc1OC,nt,nt,-2.8,7
CC(C)c1c(CN(C)C(C)Cc2ccccc2)n(C)n(-c2ccccc2)c1=O (stereo not given),-38,-0.1,nt,21
CCCN1CCO[C@@H]2c3cc(O)ccc3OC[C@H]21,-1,-0.057,nt,-29
C=C1C(=O)O[C@@H]2/C=C(/C)CC/C=C(/C)C[C@@H](OC(=O)/C(=C/CO)CO)C12 (stereo not given in full),32,-0.076,-7.4,39
C[C@@]1(C(=O)O)CC[C@]2(C)CC[C@]3(C)C4=CC(=O)c5cc(O)c(O)cc5[C@]4(C)CC[C@@]3(C)[C@@H]2C1,14,0.15,0.6,54
CC(=O)OC1CCC2(C)C(CC[C@@H]3[C@@H]2CCC2(C)C(C4=CC(=O)OC4)CCC32O)C1 (stereo not given in full),-5,0.66,-16,11
CC(C)c1cc2c(cc1O)[C@@]1(C)C[C@@H](O)CC(C)(C)C1CC2 (stereo not given in full),-21,4.5*,-0.6,-4
CC(C(=O)Nc1ccc(Cl)cc1C(=O)c1ccccc1)N1C(=O)C2C3C=CC(C3)C2C1=O (stereo not given),nt,nt,-4.2,19
O=C1CSC(c2ccccc2Cl)c2cc(Cl)ccc2N1 (stereo not given),48,0.31,-1.4,23
NC1C[C@H]1c1ccccc1 (stereo not given in full),35,0.31,nt,-1
C=CCC1(NCCc2ccccc2)CCCCC1,nt,-0.15,-1.7,-20
O[C@@H]1CCCC[C@H]1N1CCC(c2ccccc2)CC1,5,0.18,4.3,7
CCCN1CCc2cc(O)cc3c2[C@H]1Cc1ccc(O)c(O)c1-3,41,-0.2,nt,-7
Cc1ccc(NC(=O)c2cccc(OC(=O)N(C)c3ccccc3)c2)cc1C,76*,0.2,-0.6,5

# Compound profiles (already shown):
# Cc1ccc(NC(=O)c2cccc(OC(=O)N(C)c3ccccc3)c2)cc1C reads Hedgehog inh = 76*; YB-1 expr inh = 0.2; PD-1 reverse act = -0.6; MITF inhib = 5
# CN1C[C@H](CO)C=C2c3cccc4[nH]cc(c34)C[C@H]21 reads Hedgehog inh = -14; YB-1 expr inh = 0.17; PD-1 reverse act = nt; MITF inhib = 3
